SARS PLP yeast = blocks SARS-CoV papain-like protease in a yeast assay. S. cerevisiae expressing SARS-CoV PLpro, growth rescue; control for the full effect not named in the record. AID 485353. Potency, µM (doses to about 32.9 µM), inactives show top-dose activity, positive = growth rescue. 0.19% of 330,000 active; active means well fitted rising curve with a large enough effect; inconclusive means small, poorly fitted or top-dose-only effect; inactive means no such curve, though single readings can be large or run the other way; also: 0% is about no effect; nearly all actives have a fitted effect of over 55% in size; growth read by luminescence after 48 h
Lassa entry inh = blocks Lassa virus binding to or entry into cells | Lassa virus pseudotype entry inhibition, cell reporter; control for the full effect not named in the record | Potency, µM (doses to about 37.9 µM), inactives show top-dose activity change, negative = inhibition, hits mostly inhibitors | 1.2% of 300,000 active | AID 540256; active means well fitted inhibition curve with a large enough effect; inconclusive means small, poorly fitted or top-dose-only effect, or effect the other way; inactive means flat fitted curve, though single readings scatter; tested in HEK293 cells; also: % is scaled to controls: 0 for no effect and ±100 for the full control effect; nearly all actives have a fitted effect of over 50% in size; luciferase read-out
Cruzain Triton = cruzain (T. cruzi) inhibition with detergent; purified cruzain, Z-FR-AMC fluorescence, 0.01% Triton; Potency, µM, for the others: max response, negative = inhibition, usual class: inhibitors; 0.43% of 200,000 active; AID 1478;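 also: plate controls were neutral wells for no effect and buffer without enzyme for full effect; nearly all actives have a fitted effect of over 40% in size; top concentration of the series not given in the record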
Target sequence (P25779 123-467 limits assumed): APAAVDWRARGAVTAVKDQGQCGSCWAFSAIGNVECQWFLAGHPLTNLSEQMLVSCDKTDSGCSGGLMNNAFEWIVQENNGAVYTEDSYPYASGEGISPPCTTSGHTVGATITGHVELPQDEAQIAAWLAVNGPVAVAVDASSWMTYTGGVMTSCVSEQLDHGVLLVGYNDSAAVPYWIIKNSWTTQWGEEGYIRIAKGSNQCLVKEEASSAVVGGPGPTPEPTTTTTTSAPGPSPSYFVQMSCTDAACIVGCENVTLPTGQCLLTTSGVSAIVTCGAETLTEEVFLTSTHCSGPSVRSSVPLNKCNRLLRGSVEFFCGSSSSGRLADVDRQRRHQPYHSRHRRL
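Detergent-containing run (0.01% Triton X-100) in acetate buffer pH 5.5 with 5 mM DTT: enzyme at 1.5 nM final, 15 min compound preincubation at room temperature, then 2 uM Z-FR-AMC substrate. Activity taken as 60 s fluorescence increase at 360/450 nm.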
Cruzain inh noDet = cruzain (T. cruzi) inhibition without detergent | purified cruzain, Z-FR-AMC fluorescence, no detergent | Potency, µM, inactives show max response, negative = inhibition, usual class: inhibitors | 2.3% of 200,000 active | AID 1476;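 also: plate controls were enzyme without inhibitor for no effect and buffer without enzyme for full effect; nearly all actives have a fitted effect of over 40% in size; top concentration of the series not given in the record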
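Purified cruzain at 1.5 nM, pre-incubated 15 min with compound at room temperature in 100 mM sodium acetate pH 5.5, 5 mM DTT, 0.00005% Triton X-100. Reaction started with 2 uM Z-FR-AMC; AMC fluorescence increase over 60 s gives rate.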
MARV entry inh = inhibitors of Marburg virus binding or cell entry. Potency, µM (highest dose often 37.8 µM), for inactives: at the highest dose activity change, negative = inhibition, usual class: inhibitors. 1.8% of 300,000 active. Marburg virus pseudotyped entry inhibition, cell reporter; control for the full effect not named in the record; about a third of the inactives were read at about 46 µM; active = well fitted inhibition curve with a large enough effect; inconclusive = small, poorly fitted or top-dose-only effect, or effect the other way; inactive = flat fitted curve, though single readings scatter; tested in HEK293 cells; about a fifth of its hits are not listed in these tables; also: % is scaled to controls: 0 for no effect and ±100 for the full control effect; luciferase read-out
StopGo reporter = lowers the luciferase signal of an FMDV 2A StopGo reporter | human cells with a luciferase reporter of 2A StopGo recoding; control for the full effect not named in the record | Potency, µM (series often up to 57.9 µM), for inactives: top-dose signal change, negative = less light | 1.2% of 410,000 active; active = well fitted falling curve with a large enough effect; inconclusive = small, poorly fitted or top-dose-only effect; inactive = no such curve, though single readings can be large or run the other way; tested in HEK293T cells; also: % is scaled to controls: 0 for no effect and ±100 for the full control effect; nearly all actives have a fitted effect of over 45% in size; luciferase light after 4 h
NS1 inh = influenza NS1 inhibition; S. cerevisiae slowed by influenza A NS1, growth recovery by OD600; Potency, µM (series often up to 46.1 µM), for the others: top-dose activity, positive = more growth; 0.4% of 270,000 active; AID 2326; active means well fitted rising curve with a large enough effect; inconclusive means small, poorly fitted or top-dose-only effect; inactive means no such curve, though single readings can be large or run the other way; also: nearly all actives have a fitted effect of over 50% in size
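Recovery from NS1-induced slow growth read by OD600 in budding yeast switched to galactose assay medium (pH 6.0, -URA) at 1:100 dilution. Compound 23 nl per well; the matching strain lacking NS1 serves as control.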
RE007 growth inh = less growth of the S. pombe RE007 Vpr strain | S. pombe RE007 Vpr strain, BacTiter-Glo ATP luminescence, 24 h; control for the full effect not named in the record | Potency, µM (highest dose often 92.2 µM), for the others: top-dose activity change, negative = less growth | 0.21% of 360,000 active | AID 651644; active = well fitted falling curve with a large enough effect; inconclusive = small, poorly fitted or top-dose-only effect; inactive = no such curve, though single readings can be large or run the other way;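 also: % is scaled to controls: 0 for no effect and ±100 for the full control effect; nearly all actives have a fitted effect of over 50% in size; the assay follows cell death caused by Vpr and the record does not say whether a fall means rescue or toxicity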
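Fission yeast strain RE007, carrying one chromosomally integrated HIV-1 vpr copy, was seeded at OD 0.01 in PMG+AL medium with 23 nL pinned compound. After 24 h at 30 °C and 99% humidity, viability was read by BacTiter-Glo luminescence.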
* = called active by the depositor; u = inconclusive; x = no result given; & = joins results of further samples; [ ] = remark or other dose. Unless noted, calls follow the shape of the dose curve; as a rule, active = well fitted curve in the direction sought with a large enough effect; inconclusive = small, poorly fitted or top-dose-only effect, or another doubt; inactive = no such curve, though single readings can be large; an effect the other way counts as inactive or inconclusive. Potency is read from the fitted curve at half-maximal effect.

SMILES	SARS PLP yeast	Lassa entry inh	Cruzain Triton	Cruzain inh noDet	MARV entry inh	StopGo reporter	NS1 inh	RE007 growth inh
CCCCC1CCC(C(=O)Nc2ccc(S(=O)(=O)Nc3nccs3)cc2)CC1 (stereo not given)	-8.5%	-14.0%	-7.9%	12.9%	-4.5%	30.2%[activator]	8.1%	3.0%
Cc1ccn2c(C(=O)N/N=C\c3cccs3)c(C)nc2c1	4.2%	6.6%	-13.2%	2.5%	18.4%	0.0%	-6.6%	31.8%
O=[N+]([O-])c1ccc(N/N=C2\CC3CC=CC23)cc1 (stereo not given)	-14.8%	x	x	x	x	39.9%[activator]	5.5%	-0.8%
Cn1c(=O)c2c(SCc3c(F)cccc3Cl)nc(CC(C)(C)C)nc2n(C)c1=O	11.7%	x	1.4%	-19.0%	x	u	-1.6%	-0.5%
O=S(=O)(c1ccc2ccccc2c1)n1nc(-c2ccco2)nc1NCc1ccc(F)cc1	x	0.9%[46.1 µM]	-2.7%	u	-9.8%[46.1 µM]	52.5%[activator]	x	x
Cc1ccc(S(=O)(=O)N2CCC(C(=O)OCC(=O)N3CCc4ccccc43)CC2)cc1	-1.6%	1.1%	-1.9%	-8.7%	12.1%	-9.4%	2.3%	7.6%
COC(=O)c1ccccc1-c1ccc(/C=N/NC(N)=O)o1	2.3%	0.2%	x	x	2.3%	4.8%	3.6%	-14.7%
O=C(CNC(=O)C1COc2ccccc2O1)N/N=C\c1cccc(O)c1 (stereo not given)	6.8%	12.0%	-1.4%	-2.7%	u	-13.6%	-14.6%	46.0%
Cc1ccc(/C=N/NC(=O)c2ccc(NC(=O)c3ccccc3Cl)cc2)o1	-4.1%	5.4%[46.1 µM]	x	x	-5.9%[46.1 µM]	0.8%	10.8%	9.7%
CN(C(=O)c1ccc(OC2CCN(Cc3ccccn3)CC2)cc1)C1CCCCC1	-0.1%	-8.3%[46.1 µM]	x	x	12.0%[46.1 µM]	-1.9%	3.7%	-7.2%
c1ccc(-c2nnnn2-c2ccccc2)cc1	2.6%	x	x	x	x	-23.7%	0.5%	0.5%
CCOC(=O)C1(C)C=C(Nc2ccccc2)C(=O)N1c1ccccc1 (stereo not given)	0.5%	11.0%[46.1 µM]	x	x	2.9%[46.1 µM]	2.8%	-4.2%	-2.6%
Cc1ccn2cc(CCNC(=O)COc3ccccc3)nc2c1	-0.1%	x	x	x	x	-0.1%	-1.5%	-15.1%
COCCNC(=O)CSc1nc2cc(OC)c(OC)cc2c(=O)n1CCC1=CCCCC1	15.3%	3.3%	-3.1%	u	-3.3%&-3.3%	23.8%	u	-18.0%
CC1CCN2c3nc4ccccn4c(=O)c3CC3(C(=O)N(C)C(=O)N(C)C3=O)C2C1 (stereo not given)	0.9%	3.5%	-4.1%	-0.7%	-8.5%	0.0%	-5.6%	-4.4%
CCc1ccc(N2C(=O)CN(CC(=O)OC)C2=S)cc1	-0.3%	1.0%[46.1 µM]	x	x	2.6%[46.1 µM]	23.8%	-1.1%	9.0%
O=C(CCS(=O)(=O)c1ccccc1)N1CCN(c2cccc(C(F)(F)F)c2)CC1	-0.4%	u	x	x	u	-15.2%	-58.9%	5.0%
COc1ccccc1N1CCN(CC(O)COc2cc(C)cc(C)c2)CC1 (stereo not given)	x	u	-1.1%	-7.4%	u	-10.8%	x	x
COc1cc(OC)c(C2N(c3ccc(Cl)cc3)C(=O)C3CCCN32)cc1OC (stereo not given)	5.1%	x	1.5%	12.9%	x	-7.1%	-36.0%	3.2%
Cc1cccc(Nc2nc(C)nc3c2oc2ccccc23)c1	-11.6%	x	x	x	x	0.0%	-6.7%	-18.3%
COC(=O)CNC(=O)CSc1nnc(C)c(=O)[nH]1	9.3%	22.5%	2.8%	3.8%	u	-16.0%	13.0%	11.7%
O=C(NCc1ccc2c(c1)OCO2)C1CCCN1S(=O)(=O)c1ccc(F)cc1 (stereo not given)	2.7%	-12.9%	x	x	10.7%[46.1 µM]	14.7%	-68.7%	-10.4%
Cc1occc1C(=O)NNS(=O)(=O)c1ccc([N+](=O)[O-])cc1	-0.8%	u	x	x	-7.3%	35.3%[activator]	8.8%	-3.2%
CC(=O)Nc1c(C(=O)Nc2ccccc2F)oc2ccccc12	x	20.0%[46.1 µM]	0.9%	2.4%	2.8%[46.1 µM]	-17.2%	x	x
CCOc1ccc(C(=O)NC2CCN(C(=O)Nc3ccc(F)cc3)CC2)cc1	-4.2%	-2.9%	x	x	1.1%[46.1 µM]	-4.1%	-8.6%	0.3%
CCNC(=O)N1CCC(n2nccc2NC(=O)CCCc2ccccc2)CC1	-3.3%	24.3%	x	x	15.6%	-16.7%	-2.4%	5.2%
COc1ccc2cc3cc(C(=O)N4CCN(c5ccccn5)CC4)oc3nc2c1	-1.5%	x	x	x	x	-14.3%	-10.9%	-12.2%
NS(=O)(=O)c1ccc(NC(=S)NC(=O)c2ccc3c(c2)OCO3)cc1	3.0%	8.0%	x	x	u	32.8%[activator]	9.5%	11.1%
Cc1cc(Nc2ccc(C)c(C)c2)c2ccccc2n1	-0.4%	-3.4%[46.1 µM]	x	x	3.16µM*	-23.4%	-13.9%	-19.8%
Cc1c(NC(=O)c2ccccc2)cc(C(C)C)c(O)c1S(=O)(=O)c1ccc(Cl)cc1	x	-22.4%[46.1 µM]	-2.4%	u	x	28.4%	x	x

The list goes on (two carried over from the part before).
SMILES	SARS PLP yeast	Lassa entry inh	Cruzain Triton	Cruzain inh noDet	MARV entry inh	StopGo reporter	NS1 inh	RE007 growth inh
Cc1cc(Nc2ccc(C)c(C)c2)c2ccccc2n1	-0.4%	-3.4%[46.1 µM]	x	x	3.16µM*	-23.4%	-13.9%	-19.8%
Cc1c(NC(=O)c2ccccc2)cc(C(C)C)c(O)c1S(=O)(=O)c1ccc(Cl)cc1	x	-22.4%[46.1 µM]	-2.4%	u	x	28.4%	x	x
CCOC(=O)CSc1nc2ccc(NC(=O)c3ccccc3F)cc2s1	x	u	-10.7%	-5.8%	0.2%[46.1 µM]	0.0%	x	x
CCC1CCCCN1S(=O)(=O)c1ccc(NC(=O)c2cccnc2)cc1 (stereo not given)	3.9%	u	x	x	-28.7%	11.2%	16.9%	-2.5%
Cc1ccc(C)c(NC(=O)CCc2ccc(S(=O)(=O)NC3CCCCC3)cc2)c1	7.0%	-4.2%	-2.7%	3.2%	u	-8.4%	0.9%	5.7%
Cc1ccc(C(=O)N/C(=C\c2ccccc2)C(=O)NCc2cccnc2)cc1	0.1%	-0.2%	x	x	-19.7%	6.7%	-0.1%	2.8%
Cc1ccc(C)c(N2N=C(C(=O)Nc3ccc(S(=O)(=O)N4CCCC4)cc3)CCC2=O)c1	0.1%	x	x	x	x	-3.6%	-8.2%	-5.7%
CCOc1cc2c(cc1OCC)-n1cccc1C(c1ccccc1O)NC2 (stereo not given)	-0.7%	x	x	x	x	u	2.4%	-8.1%
COC(=O)C1CCN(C(c2ccc(OC)c(OC)c2)c2sc3nc(C)nn3c2O)CC1 (stereo not given)	4.1%	x	-1.0%	-2.1%	6.7%	-10.8%	-14.4%	2.3%
O=C(/C=N/O)Nc1ccccc1	-0.5%	12.1%	1.2%	2.3%	2.1%	-4.4%	-9.8%	10.6%
CCCC(=O)NC(c1ccccc1)c1ccc2cccnc2c1O (stereo not given)	u	u	x	x	u	-15.9%	-114.2%	u
Cc1ccc(N2C(=O)NC(NS(=O)(=O)c3ccc(C)cc3)(C(F)(F)F)C2=O)cc1 (stereo not given)	1.7%	x	x	x	16.0%[46.1 µM]	-9.8%	4.8%	3.5%
COc1cccc(-n2c(SCC(=O)Nc3cccc(Cl)c3)nc3c(oc4ccccc43)c2=O)c1	x	x	-2.6%	12.6µM*	u	-14.7%	x	x
COc1ccccc1/C=N/NC(=O)c1nnn(-c2nonc2N)c1CSC1=NCCS1	-12.3%	7.4%	-5.0%	u	-4.4%	-15.5%	-3.7%	-11.4%
O=C(COC(=O)c1ccc(O)cc1)Nc1cccc(S(=O)(=O)N2CCCCC2)c1	0.8%	u	x	x	-13.4%[46.1 µM]	-26.2%	18.2%	17.3%
COc1ccc(CNS(=O)(=O)c2cc3c(cc2C)N(C)CCO3)cc1	3.3%	0.0%[46.1 µM]	-1.3%	0.5%	x	50.1%&53.5%[activator]	1.6%	-6.2%
COc1cccc(NC(=O)c2nn(C)c(C(=O)Nc3cccc(OC)c3)c2[N+](=O)[O-])c1	0.3%	1.2%	x	x	u	0.0%	-11.6%	-11.2%
CC1CCCCN1C(=O)c1cccc(NC(=O)c2ccccc2)c1 (stereo not given)	-0.5%	2.9%	x	x	-0.8%[46.1 µM]	2.2%	-3.5%	-4.3%
O=C(NCC1CC1)c1ccc(Nc2nc3ccc(Br)cc3[nH]2)cc1	-1.1%	x	-17.0%	0.6%	x	-20.4%	4.3%	-6.7%
O=C(Nc1cc(C(F)(F)F)ccc1N1CCOCC1)c1cccnc1Cl	-5.1%	-0.9%	-6.5%	10.4%	2.9%	9.6%	-6.9%	0.2%
O=C(NC1CCCC1)C1CCC(=O)N1C1CCCC1 (stereo not given)	3.8%	15.4%	11.4%	4.9%	9.9%	x	-5.2%	8.6%
O=C1c2ccccc2C(=O)N1CCCc1c[nH]c2ccccc12	-8.4%	-17.6%	-6.3%	-5.7%	u	0.0%	0.0%	-12.9%
Cc1ccccc1C(=O)N1CCN(c2ccc(NC(=O)c3ccc4c(c3)OCCO4)cc2)CC1	u	u	x	x	5.01µM*	7.08µM*	-12.6%	0.2%
OC(CNCc1ccccc1)Cn1ccc2ccccc21 (stereo not given)	10.1%	u	1.0%	13.5%	u	0.0%	15.3%	-9.7%
CCN(CC(=O)Nc1ccccc1C(F)(F)F)C(=O)c1cc(-c2ccccc2)nn1-c1ccccc1	-2.7%	-29.5%	x	x	2.4%	-12.2%	x	2.0%
CCN(CC(=O)Nc1c(F)cccc1F)C(=O)/C=C/c1ccc(Br)s1	0.3%	-24.8%	x	x	-10.8%	5.3%	x	19.2%
CN(C(=O)COC(=O)c1ccc2c(c1)OCO2)C1CCCCC1	-14.8%	u	x	x	u	24.6%	x	-20.5%

From PubChem
